# PINK1 modulator: PINK1 expression modulation | PINK1 immunofluorescence, high-content cytometry, 24 h | Potency, µM (titrated, usually from 76.6 µM), inactives show top-dose activation (PINK1 increase), usual class: activators | AID 624263 | hit rate 0.2% among 410,000; active = well fitted activation curve with a large enough effect; inconclusive = small, poorly fitted or top-dose-only effect; inactive = flat fitted curve, though single readings scatter; cell line not stated here;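 also: potency is read from the fitted curve at half-maximal effect; % of control where 0% means no effect; nearly all actives have a fitted effect of over 65% in size; a mitochondrial uncoupler was the plate control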
#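 PINK1 protein level read as immunofluorescence by microplate cytometer in a fixed, stained stable cell line after 24 h exposure to five compound concentrations, with CCCP as control.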
# TRPML1 agonist: activates the human TRPML1 channel. activation, % (no concentration beside the values). Q9GZU1. TRPML1-expressing cells, Ca2+ dye fluorescence, FDSS; host cell line not named in the record; reference of the full effect not given here. hit rate 0.12% among 410,000; in the data active = activation above about 50%; inconclusive = about 30% to 50%; inactive = below about 30%; also: 0% is about no effect; the text of the record puts the active cut at 80%
# Target sequence (Q9GZU1 whole entry, looked up): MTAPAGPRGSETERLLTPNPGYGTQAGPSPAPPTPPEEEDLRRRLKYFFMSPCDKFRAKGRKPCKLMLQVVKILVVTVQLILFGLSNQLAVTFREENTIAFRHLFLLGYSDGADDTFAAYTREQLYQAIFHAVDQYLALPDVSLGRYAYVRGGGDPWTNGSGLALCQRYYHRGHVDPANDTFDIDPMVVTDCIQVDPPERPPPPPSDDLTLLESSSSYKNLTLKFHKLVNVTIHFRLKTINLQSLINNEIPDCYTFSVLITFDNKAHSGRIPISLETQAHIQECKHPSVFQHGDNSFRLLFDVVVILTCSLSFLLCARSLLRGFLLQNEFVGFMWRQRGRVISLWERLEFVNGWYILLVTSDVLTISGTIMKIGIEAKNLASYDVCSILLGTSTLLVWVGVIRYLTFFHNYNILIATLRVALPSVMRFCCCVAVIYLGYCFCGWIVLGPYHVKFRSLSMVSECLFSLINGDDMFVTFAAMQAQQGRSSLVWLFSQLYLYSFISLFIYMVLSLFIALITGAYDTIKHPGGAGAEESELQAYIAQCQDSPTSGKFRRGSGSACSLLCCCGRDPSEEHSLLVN
#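 Agonist activity was taken from a 110 s kinetic Ca2+ dye read on the FDSS after pinning compounds onto TRPML1-DL cells. The cells were seeded at 1,500/well with Tet inducer, incubated about 16 h, then dye-loaded at room temperature.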
# CtBP-E1A inh: CtBP/E1A binding inhibition. AlphaScreen GST-E1A/His-CtBP binding, 1536-well; stronger effect = lower value; control for the full effect not named in the record. activity change, % (test concentration not listed). hit rate 0.49% among 340,000. AID 651724; in the data active means activity change below about -65%; inconclusive means about -30% to -65%; inactive means above about -30%; also: % is scaled to controls: 0 for no effect and ±100 for the full control effect; compound concentration not given in the record
#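 Protein mix (5X: 125 nM each GST-E1A, His-CtBP) was incubated with pinned compound 2 h at 37 deg C in dark, in 50 mM Tris pH 8.0 buffer with 300 mM NaCl. Glutathione donor and nickel acceptor beads followed; AlphaScreen signal read after 1 h.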
# D2 ag: activates the human D2 dopamine receptor; activation, % (test concentration not listed); DiscoveRx PathHunter D2 beta-arrestin, luminescence, 90 min; 100% = 57 uM dopamine signal; P14416; AID 624465; hit rate 0.084% among 360,000; in the data active = activation above about 40%; inconclusive = about 15% to 40%; inactive = below about 15%; also: compound concentration not given in the record; the text of the record calls up to 30% inactive
# Target sequence (P14416 whole entry, looked up): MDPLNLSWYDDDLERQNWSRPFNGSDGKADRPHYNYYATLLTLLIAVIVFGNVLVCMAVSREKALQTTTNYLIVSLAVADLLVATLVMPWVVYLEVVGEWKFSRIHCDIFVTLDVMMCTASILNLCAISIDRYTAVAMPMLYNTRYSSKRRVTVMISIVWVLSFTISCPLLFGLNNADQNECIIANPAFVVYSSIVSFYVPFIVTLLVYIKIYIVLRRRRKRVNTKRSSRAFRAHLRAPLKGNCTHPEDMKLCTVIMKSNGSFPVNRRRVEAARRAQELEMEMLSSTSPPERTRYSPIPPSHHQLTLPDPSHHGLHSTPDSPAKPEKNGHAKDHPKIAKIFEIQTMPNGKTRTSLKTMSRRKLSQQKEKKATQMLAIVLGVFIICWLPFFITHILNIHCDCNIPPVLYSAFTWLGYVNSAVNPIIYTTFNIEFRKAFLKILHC
#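 Agonist mode: compounds alone added to overnight-plated D2 PathHunter cells for 90 min at 37 C, with 57 uM final dopamine (EC100) defining full response. Beta-arrestin recruitment detected by chemiluminescent reagent, read after 1 h at ambient temperature.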
# Six1-Eya2 blk: Six1/Eya2 interaction inhibition | activity change, % (concentration not given with the values) | AlphaScreen GST-Six1/His-Eya2 binding, biochemical; stronger effect = lower value; control for the full effect not named in the record | Q15475+O00167 | hit rate 0.56% among 360,000 | AID 651725; in the data active = activity change below about -65%; inconclusive = about -30% to -65%; inactive = above about -30%; also: % is scaled to controls: 0 for no effect and ±100 for the full control effect
#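 Six1/Eya2 binding was read as AlphaScreen signal after compounds were pinned into GST-Six1 plus His-tagged Eya2 (5X stock 250/500 nM) in pH 8.0 Tris/NaCl/TCEP buffer, beads added, then incubated 1 h, 37 C, dark.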
# D2 potentiator: human D2 receptor positive allosteric modulation. P14416. hit rate 0.23% among 360,000. AID 624464. DiscoveRx D2 beta-arrestin cells, luminescence, 90 min; 100% = 57 uM dopamine signal. potentiation, % (concentration not given with the values); active = potentiation of 50% or more; inconclusive = 30% to 50%; inactive = 30% or less;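 also: compound concentration not given in the record; tested on top of an EC20 dose of dopamine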
#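 PathHunter D2 cells, attached overnight at 37 deg C, received compound in DMSO plus dopamine at EC20 (50 nM final) for 90 min at 37 deg C. Beta-arrestin recruitment was read as luminescence after 1 h with detection reagent at ambient temperature.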
# Numbers without * were called inactive; u = inconclusive; x = not tested or not shown; & = joins results of further samples; [ ] = remark or other dose.
SMILES,PINK1 modulator,TRPML1 agonist,CtBP-E1A inh,D2 ag,Six1-Eya2 blk,D2 potentiator
CC(C)NC(=O)N(C)C[C@H]1Oc2ccc(NC(=O)Nc3ccccc3)cc2C(=O)N([C@@H](C)CO)C[C@@H]1C,0.6%,-0.7,0.0,-3.0,-6.4,-5.5
CCOC(=O)C1CCN(S(=O)(=O)c2ccc3c(c2)NC(=O)CS3)CC1,-0.7%,-0.8,-18.4,-2.6,3.4,-2.8
CNS(=O)(=O)c1cccc(C(=O)OCC(=O)NCc2ccccc2)c1,-1.5%,-1.0,5.9,-3.5,-0.1,-12.9
COc1cc2ccccc2cc1C(=O)N(CCN(C)C)c1nc2c(C)cccc2s1,17.8%,-1.1,-15.0,-9.9,-25.3,-34.1
Cc1cc(C(=O)Nc2ccccc2N2CCOCC2)no1,-0.2%,0.9,0.7,-4.6,6.2,-2.3
COc1ccccc1N1CCN(C(=O)CNS(=O)(=O)c2ccc(Br)s2)CC1,2.7%&0.2%,-0.4&2.4,15.3,-1.4,-2.1,-9.8
CCOc1ccc(NC(=O)CNC(=O)c2ccco2)cc1,1.1%,0.3,x,-3.8,6.6,-11.2
CN(C)C1(CNC(=O)CC(NC(=O)c2ccccc2Cl)c2ccccc2)CCCCC1 (stereo not drawn),-0.3%,0.7,3.6,-1.9,11.6,-2.9
CCC(NC(=O)c1cncc(Br)c1)c1ccccc1 (stereo not drawn),1.3%,-1.0,x,-5.2,5.8,-22.1
CC(C)N(CCCNC(=O)Cn1c(=O)c2cccn2c2ccccc21)Cc1ccccc1,-0.2%,-0.4,0.0,2.2,4.5,-2.8
CC(C)CC(NC(=O)C1CCCCC1)C(=O)N1CCN(c2ccccn2)CC1 (stereo not drawn),0.1%,-0.6,12.9,-4.1,-1.9,-11.7
CCOC(=O)N1CCC(NC(=O)c2cc(C(=O)Nc3ccc(OCC)cc3)ccc2CO)CC1,0.5%,-0.8,-0.2,-0.3,2.4,-8.3
COc1ccc(N2CCN(C(=O)CCNS(=O)(=O)c3cccs3)CC2)cc1,-1.6%[38.3 µM],-0.3,7.8,-2.9,-6.2,-4.5
CC(=O)OCCOc1nc(NC(C)C)nc(NC(C)C)n1,0.6%,-0.3,6.7,-1.3,-1.5,2.6
CCOc1ccc(Nc2nc(NCc3ccco3)nc(N)c2[N+](=O)[O-])cc1,1.0%,1.4,3.1,-7.8,-0.9,-11.2
O=C(/C=C/c1ccccc1)Nc1cccc(C(=O)O)c1,4.4%,1.0,x,-3.5,5.8,0.1
O=C(CCSc1ccccc1)N1CCCC1,3.0%,0.1,-14.2,-3.7,4.7,-1.9
Cc1cc2c(cc1S(=O)(=O)CCC(=O)NC1CCCCC1C)OCC(=O)N2 (stereo not drawn),0.7%,0.4,-1.4,-4.1,-3.2,-7.5
Cc1ccc(S(=O)(=O)N(C)c2ccc(C(=O)N(C)Cc3nc4ccccc4c(=O)[nH]3)cc2)cc1,-1.5%,0.1,0.5,-4.9,-10.9,-25.6
Cc1ccc(NC(=O)CCn2c(=O)c3cccn3c3ccccc32)cc1C,2.5%&5.9%,-1.7&3.7,2.7,-1.9,-2.5,-26.1
CCOC1=C2CN(S(=O)(=O)c3ccc(C)cc3)[C@@H](c3ccccc3)C[C@H]2[C@H]2C(=O)N(c3ccccc3)C(=O)[C@H]2C1,2.4%,1.9,-0.1,-6.0,-7.1,-4.8
CCOc1ccc2[nH]c(C(=O)N/N=C/c3ccc(OC)cc3)cc2c1,23.9%,1.9,-5.5,u,-17.2,0.5
COC(=O)c1ccc(COc2ccc(C)cc2[N+](=O)[O-])o1,0.0%,2.6,4.0,-2.9,-8.7,-7.6
CCn1cc(C2C3=C(CC(C)(C)CC3=O)N(c3ccccc3)C3=C2C(=O)CC(C)(C)C3)c(C)n1,0.8%,-0.3,-10.3,-2.3,0.4,-18.8
Clc1ccc(/C=C/c2nc3ccccc3[nH]2)cc1,2.6%,-0.1,7.5,1.0,2.7,14.2

# 3 of the entries above in order of the PINK1 modulator value, high to low.
SMILES	PINK1 modulator
COc1cc2ccccc2cc1C(=O)N(CCN(C)C)c1nc2c(C)cccc2s1	17.8%
CC(C)CC(NC(=O)C1CCCCC1)C(=O)N1CCN(c2ccccn2)CC1 (stereo not drawn)	0.1%
CC(C)N(CCCNC(=O)Cn1c(=O)c2cccn2c2ccccc21)Cc1ccccc1	-0.2%

# Later entries:
SMILES,PINK1 modulator,TRPML1 agonist,CtBP-E1A inh,D2 ag,Six1-Eya2 blk,D2 potentiator
CCOCCOC(=O)NCCCCCCNC(=O)OCCOCC,5.4%,-0.7,x,-4.0,7.7,-14.0
COc1ccc(CNc2nc3ccccc3n2Cc2ccccc2)cc1OC,3.3%,0.4,-2.4,-1.7,-3.2,-32.4
O=C1c2cccc3cccc(c23)N1Cc1ccc(F)cc1,2.3%,0.5,67.2,-3.2,82.6,-11.4
O=C(CCNC(=O)N1CC(=O)Nc2ccccc21)NCc1ccccc1,1.5%,-0.5,0.0,0.0,-2.7,-21.8
COc1ccc(C)cc1NC(=O)CN(C)S(=O)(=O)c1ccc2c(c1)CC(C)N2C(C)=O (stereo not drawn),0.5%,2.1,x,-4.8,-2.6,-7.3
O=[N+]([O-])c1ccc(O)c(C=Nc2cccc3ccccc23)c1,0.1%,-0.1,-10.1,1.0,-4.6,-4.8
O=C(O)CCc1nn2c3ccccc3n(Cc3ccccc3)c2nc1=O,-1.3%,0.3,-8.2,5.1,-0.4,-2.8
O=C(NC1CCCN(Cc2ccc(Cl)cc2)C1)c1cccc(N2CCCC2=O)c1 (stereo not drawn),-0.6%,0.9,1.7,-3.7,-1.2,-26.7
O=C(OCC(=O)N1CCCCC1)c1cc2ccccc2cc1O,2.6%,-1.0,-0.5,0.0,-1.0,9.3
CCOC(=O)c1c(NC(=O)C(C)Sc2c[nH]c3ccccc23)sc2c1CCC2 (stereo not drawn),u,0.7,0.0,-6.5,-10.5,0.5
CCN1CCN(C(=O)CN(CCc2ccccc2)S(C)(=O)=O)CC1,-4.9%[38.3 µM],1.1,4.0,-6.6,1.2,-4.1
CC(C)CN(C(=O)CN1CCN(c2ccccc2F)CC1)c1c(N)n(CC(C)C)c(=O)[nH]c1=O,-0.3%,0.4,-1.1,0.3,9.4,-14.0
COc1ccc(C(=O)OCCN2CCOCC2)cc1,-2.7%,-0.3,-5.2,-0.5,-1.3,-11.2
O=C(NC1CCCCCCC1)c1ccc2c(c1)N(Cc1ccc(F)cc1)C(=O)CS2=O (stereo not drawn),3.4%[38.3 µM],-0.4,3.1,-1.9,-1.9,13.0
Cc1ccc(CCN2CCN=C2Nc2ccccc2)cc1,0.0%,12.4,0.0,-3.7,-3.6,-18.1
CC(C)Cn1c(N)c(C(=O)COC(=O)Cc2cccc(C(F)(F)F)c2)c(=O)n(C)c1=O,u,2.7,4.0,0.4,21.1,-21.5
NNC(=S)Nc1ccc(C(F)(F)F)cc1Cl,23.9%,1.6,7.0,-4.1,-1.4,-4.9
Cc1ccc2[nH]c3c(N4CCc5ccccc5C4)ncnc3c2c1,u,-0.5,-1.5,8.2,-12.1,-18.0
CC(C)(C)c1nnc(N/N=C/c2ccccc2O)n(N)c1=O,13.0%,1.0,-2.1,4.9,-91.2*,12.5
CCN(c1ccccc1)S(=O)(=O)c1ccc(OC)c(NC(=O)COc2ccc(C(C)=O)cc2)c1,8.2%,-0.8,3.2,-0.6,-1.6,-2.6
CC(C)N(Cc1nc(-c2ccc(Cl)cc2)no1)C(=O)CCC1CCCC1,8.0%,1.7,15.9,-2.6,13.8,-7.6
CCCc1cc(=O)oc2cc(OCc3ccc(OC)cc3)c(Cl)cc12,8.4%,3.9,-24.5,-0.9,-4.0,-2.1
Cc1c([N+](=O)[O-])nnn1-c1cc(Cl)cc(Cl)c1,1.1%,0.0,6.3,-4.2,1.4,-4.8
Cc1sc(NC(=O)CN(Cc2ccccc2)C(=O)C2CC2)c(C(N)=O)c1C,0.1%,0.1,1.6,0.4,4.6,-9.3
COc1ccc(NC2CCCN(C(=O)c3ccc(OC)cc3OC)C2)cc1 (stereo not drawn),0.4%,1.1,-10.0,-1.0,-30.0,-34.9

# More structures follow.
SMILES,PINK1 modulator,TRPML1 agonist,CtBP-E1A inh,D2 ag,Six1-Eya2 blk,D2 potentiator
C=CCn1c(SCC(=O)NC2CCCc3ccccc32)nnc1-c1ccncc1 (stereo not drawn),-1.1%,2.0,1.3,-0.1,2.8,-6.4
Cc1c(C(=O)N(C)Cc2ccccc2)oc2ccc(S(=O)(=O)N3CCCC3)cc12,-1.6%,-1.2,2.9,0.5,0.0,0.0
CCOC(=O)c1c(O)c2c(n(Cc3ccco3)c1=O)CCCC2,-1.2%,1.9,-5.8,5.7,6.3,25.0
Cc1cc(C(=O)OCC(=O)N2CCCCCC2)ccc1[N+](=O)[O-],-0.5%,3.1,0.8,1.3,0.6,2.0
COc1ccc(CCNC(=O)c2cc3c(cc2Cl)N2CCCCCC2=NS3(=O)=O)cc1,0.3%,0.2,-22.9,-5.5,8.4,-9.7
Cc1cc(C)cc(NC(=O)CN2CCC(C(=O)c3ccccc3)CC2)c1,-0.8%,0.1,-0.6,-0.7,-4.9,-18.7
CCOC(=O)c1sc(=NC(=O)CCS(=O)(=O)c2ccccc2)n(C)c1C,1.6%,0.4,2.1,1.7,0.5,4.5
CCN1CCN(C(c2cccs2)C(C)NC(=O)c2cccnc2)CC1 (stereo not drawn),1.3%[38.3 µM],0.5,28.6,0.3,0.4,-2.2
COC(=O)COC(=O)c1ccc(Oc2nc(OC)nc(N(C)C)n2)cc1,x,1.2,1.4,-2.8,14.8,-9.3
COc1cccc(N/C(=N/C(=S)Nc2ccc(C)cc2C)Nc2nc(C)cc(C)n2)c1,9.2%,0.9,0.5,1.9,-6.5,-14.8
O=C(COC(=O)C1COc2ccccc2O1)NC1CCCCC1 (stereo not drawn),0.1%,0.2,13.9,-0.1,8.1,-3.8
CCN(CCO)CC1CCCC2CCCCC21 (stereo not drawn),-0.1%,-0.6,2.8,x,9.3,x
COc1ccc(CCOC(=O)CNC(=O)c2ccc(Cl)cc2Cl)cc1,0.9%,2.9,0.0,2.2,16.4,-24.7
CN(C)c1ccnc(-n2cccc2/C=N/OCc2ccccc2)c1C#N,1.3%,-0.3,-2.7,-0.8,-9.2,-7.6
COc1ccc(OCc2nc(N)nc(Nc3ccc(C)cc3)n2)cc1,2.0%,-0.2,-2.5,-1.9,-1.2,21.9
COC1c2ccccc2C(=O)N1Cc1ccc(F)cc1 (stereo not drawn),0.4%,-1.0,5.1,-1.8,-13.9,-30.9
CC(NC(=O)OCc1ccccc1)C(=O)Oc1cc2oc(=O)cc(-c3ccccc3)c2cc1Cl (stereo not drawn),1.6%,0.4,-3.0,-0.6,0.4,27.2
CCC[C@@H]1C[C@@]1(CCC)[C@@H](NC(=O)c1ccccc1)c1ccc(C(=O)OC)cc1,0.0%,0.3,3.7,-1.3,-2.4,-11.0
O=[N+]([O-])c1ccc(C2CNC(c3ccccc3)O2)cc1 (stereo not drawn),2.4%[38.3 µM],1.1,2.8,-1.6,3.4,1.2
CC(C)Oc1cccc(C(=O)C2CCCN(C(=O)c3cc(C(F)(F)F)[nH]n3)C2)c1 (stereo not drawn),0.5%,3.4,-1.0,-0.9,1.7,-4.4
O=C(COc1ccccc1Cl)Nc1ccc(C(=O)c2ccc(C(=O)O)cc2)cc1,1.6%,-0.3,1.8,-3.1,0.1,-2.7
